Assay outcomes (PubChem)
BJeLR viab HTS = BJeLR cell viability loss, primary screen, luminescence, CellTiterGlo ATP; AID 2275, 2010; hit rate 0.64% among 30,000; viability loss activity score, % (no concentration beside the values); BJeLR fibroblasts viability, 48 h; HRASV12, hTERT and SV40 LT/ST transformed; in the data active = viability loss activity score above about 50%; about a fifth of its hits are not listed in these tables;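 also: higher score means fewer live cells and less ATP luminescence; stock transfer was 50 or 100 nL into about 30 µL; 0% = vehicle wells and 100% = a reference killing control; one replicate is shown; the record names a cut of 85%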
A1 inhib = inducers of caspase activity in MEF A1-2A-BIM cells, primary screen, A1 inhibitor project, cell-based, CaspaseGlo luminescence; caspase activation, % (no concentration beside the values); caspase-Glo luminescence, 3 h; percent of clofoctol signal, DMSO as zero; hit rate 0.51% among 21,000; AID 2241, 2010;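 active = most replicate scores above 10, or exactly half above 10 with mean activity above 10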;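 also: effector caspase 3 and 7 activity cleaving a DEVD luciferin substrate; 50 nL library stock added to about 30 µL; numbers are from one replicate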
* = called active by the depositor; . = not tested or not shown.

SMILES | BJeLR viab HTS | A1 inhib
COc1ccc(S(=O)(=O)Nc2ccc3c(c2)C(=O)N([C@@H](C)CO)C[C@@H](C)[C@H](CN(C)C(=O)NC(C)C)O3)cc1 | 0.4 | 0.5
CCOC(=O)c1c(N)sc2c(OCC)c(Br)ccc12 | 7.5 | -0.2
C[C@@H]1CN([C@H](C)CO)C(=O)c2cc(NC(=O)Nc3cccc4ccccc34)ccc2O[C@@H]1CN(C)Cc1ccc(-c2ccccc2)cc1 | 2.3 | 1.3
O=C1CC(c2ccccc2)CC(O)=C1C=NCc1ccncc1 (stereo unspecified) | -0.5 | 0.7
COc1ccc(CN2C(=O)C3C4C=CC(C4)C3C2=O)cc1 (stereo unspecified) | 3.4 | 1.4
C[C@@H]1CN([C@H](C)CO)C(=O)c2cccc(NS(=O)(=O)c3cn(C)cn3)c2O[C@@H]1CN(C)C(=O)Nc1ccc(F)cc1 | 3.9 | .
CCCN1C(=O)c2ccccc2NC1c1ccc(OC)c(OC)c1 (stereo unspecified) | -4.8 | -0.3
CCCc1nc(SCC(=O)c2ccc(Cl)cc2)nc(OC(=O)N(CC)CC)c1C | -3.4 | -0.5
O=C(O)CSc1nnc(COc2ccc(Cl)cc2)n1-c1ccc(Br)cc1 | 0.4 | 0.7
COc1cc(C2OCC3C(C)C=C(C)C2C3C)ccc1O (stereo unspecified) | 0.0 | 0.0
Cc1c(C)c(C)c(CSC2CC(=O)N(c3ccccc3)C2=O)c(C)c1C (stereo unspecified) | -3.1 | 0.5
c1ccc(Sc2ncnc3c2oc2ccccc23)nc1 | -1.4 | -2.3
C[C@H]1CN([C@@H](C)CO)C(=O)c2cc(NC(=O)CCN3CCOCC3)ccc2O[C@@H]1CN(C)S(=O)(=O)c1ccccc1 | -2.6 | -0.5
CC(C)NC(=O)Nc1ccc2c(c1)C(=O)N([C@H](C)CO)C[C@@H](C)[C@H](CN(C)C)O2 | -1.1 | 0.2
C[C@H]1CN([C@@H](C)CO)C(=O)c2cccc(N(C)C)c2O[C@@H]1CN(C)S(=O)(=O)c1cn(C)cn1 | -6.8 | .
O=C(O)CCC(=O)N1CCN(C(c2ccccc2)c2ccccc2)CC1 | 1.8 | 1.2
Cc1cc(=O)oc2c3c(ccc12)OC(=O)/C3=C\c1ccccc1 | -0.7 | -0.3
COc1ccc(-c2c(-c3ccc(OC)cc3)n(Cc3ccc(F)cc3)c3nc[nH]c(=O)c23)cc1 | -4.6 | 0.2
Cc1ccc(CN(Cc2ccco2)C(=S)Nc2c(C)cc(C)cc2C)cc1 | -8.9 | .
Cc1noc(C)c1NC(=O)N(C)C[C@@H]1Oc2c(NS(=O)(=O)c3ccc(F)cc3)cccc2C(=O)N([C@@H](C)CO)C[C@@H]1C | 0.3 | .
CCOC(=O)c1c(-c2ccccc2)oc2ccc(O)c(CSCC(=O)Nc3ccccc3)c12 | -4.0 | 0.3
C[C@@H]1CN([C@H](C)CO)C(=O)c2cccc(NS(=O)(=O)c3ccccc3)c2O[C@@H]1CN(C)Cc1ccc(C(F)(F)F)cc1 | 0.2 | .
CCc1c(O)cc(O)c2c1O[C@H](C)CC2=O | 4.9 | 0.1
CCC1CCc2nc3sc(C(=O)NC(C)c4ccccc4)c(N)c3cc2C1 (stereo unspecified) | -4.6 | .
COC(=O)CSc1nnc2sc3ccccc3n12 | 1.8 | -0.1
C[C@@H]1CN([C@H](C)CO)C(=O)c2cccc(NS(C)(=O)=O)c2O[C@@H]1CN(C)Cc1ccc(C(F)(F)F)cc1 | -2.0 | .
CCSc1ccsc1C1C(C#N)=C(N)N(c2cccnc2)C2=C1C(=O)CC(C)(C)C2 (stereo unspecified) | -0.1 | 1.0
Cc1cc(-c2noc(-c3cc(C)on3)n2)no1 | 2.4 | 0.2
COc1ccc(NC(=O)N(C)C[C@@H]2Oc3c(NS(=O)(=O)c4ccc(Cl)cc4)cccc3C(=O)N([C@@H](C)CO)C[C@H]2C)cc1 | 1.2 | .
COc1ccc(NC(=O)N(C)C[C@@H]2Oc3c(NS(=O)(=O)c4cn(C)cn4)cccc3C(=O)N([C@H](C)CO)C[C@H]2C)cc1 | 1.7 | .
C[C@H](CO)N1C[C@H](C)[C@@H](CN(C)Cc2ccc(C(=O)O)cc2)Oc2ccc(NS(=O)(=O)c3ccc(Cl)cc3)cc2C1=O | 8.2 | -0.5
NS(=O)(=O)c1ccc(CCNC(=O)c2oc(=O)c3ccccc3c2-c2ccccc2)cc1 | 4.1 | .
O=c1[nH]c(=S)[nH]c(O)c1C=Nc1cccc(O)c1 | 0.1 | 0.1
C[C@@H]1CN([C@@H](C)CO)C(=O)c2cc(NC(=O)Nc3ccccc3)ccc2O[C@H]1CN(C)Cc1ccc(C(F)(F)F)cc1 | 1.1 | -0.5
C[C@H]1CN([C@@H](C)CO)C(=O)c2cc(NC(=O)Nc3ccc(C(F)(F)F)cc3)ccc2O[C@H]1CN(C)Cc1ccccc1 | 7.7 | 0.0
Cc1cc(C(=O)Nc2cccc3c2O[C@H](CN(C)C(=O)NC2CCCCC2)[C@H](C)CN([C@@H](C)CO)C3=O)n(C)n1 | 0.1 | .
C[C@@H]1CN([C@@H](C)CO)C(=O)c2cc(NC(=O)CCN3CCOCC3)ccc2O[C@@H]1CN(C)C | 1.2 | 0.0
C[C@H](CO)N1C[C@H](C)[C@H](CN(C)CC2CCCCC2)Oc2ccc(NC(=O)Nc3ccc(C(F)(F)F)cc3)cc2C1=O | 5.1 | -0.6
C[C@@H]1CN([C@H](C)CO)C(=O)c2cc(NS(=O)(=O)c3cn(C)cn3)ccc2O[C@@H]1CN(C)Cc1ccc(C(=O)Nc2ccccc2N)cc1 | -5.9 | .
C[C@H]1CN([C@@H](C)CO)C(=O)c2cc(NC(=O)Nc3ccccc3)ccc2O[C@@H]1CN(C)Cc1ccc(C(F)(F)F)cc1 | -0.6 | -0.1
COc1cc2c(c(O)c1CO)C(=O)CCC2O (stereo unspecified) | 3.5 | -0.3
Cc1nc(-c2cc(C#N)c(SCCNS(=O)(=O)c3ccc(C(C)(C)C)cc3)nc2C)cs1 | -3.6 | 0.1
Cc1oc2cc(OC(C)C)ccc2c(=O)c1-c1ccc2c(c1)OCCO2 | 1.6 | 0.0
COc1ccc(CN(C)C[C@@H]2Oc3c(NS(=O)(=O)c4ccccc4)cccc3C(=O)N([C@H](C)CO)C[C@@H]2C)cc1 | 2.5 | .
Cn1c(=O)c(-c2noc(-c3ccccc3)n2)cn(-c2ccccc2)c1=O | -2.9 | -0.4
O=C(O)COCC(=O)Nc1ccc(-n2ccc(C(F)(F)F)n2)cc1 | -2.0 | .
CC(C)NC(=O)N(C)C[C@@H]1Oc2ccc(NC(=O)c3ccncc3)cc2C(=O)N([C@H](C)CO)C[C@@H]1C | 1.4 | 1.1
c1ccc(CN2CN=C(Nc3nc4ccccc4s3)NC2)cc1 | 3.8 | -0.5

Part of the list above, field by field.
COc1cc2c(c(O)c1CO)C(=O)CCC2O (stereo unspecified)
  BJeLR viab HTS: 3.5 | A1 inhib: -0.3

Cc1nc(-c2cc(C#N)c(SCCNS(=O)(=O)c3ccc(C(C)(C)C)cc3)nc2C)cs1
  BJeLR viab HTS: -3.6 | A1 inhib: 0.1

Back to the main list, starting two compounds before the break.
SMILES | BJeLR viab HTS | A1 inhib
CC(C)NC(=O)N(C)C[C@@H]1Oc2ccc(NC(=O)c3ccncc3)cc2C(=O)N([C@H](C)CO)C[C@@H]1C | 1.4 | 1.1
c1ccc(CN2CN=C(Nc3nc4ccccc4s3)NC2)cc1 | 3.8 | -0.5
C[C@@H]1CN([C@@H](C)CO)C(=O)c2cccc(NC(=O)C3CCOCC3)c2O[C@H]1CN(C)C(=O)Nc1cccc2ccccc12 | -0.5 | .
O=C(CC1C(=O)N(c2ccccc2)C(=O)N1C1CCCCC1)Nc1ccccc1 (stereo unspecified) | -6.9 | .
NC(=O)C(Cc1ccccc1)N1C(=O)C2C3C=CC(C3)C2C1=O (stereo unspecified) | 4.0 | -0.4
CCCn1c(N)nc2c1c(=O)n(C)c(=O)n2C | 2.2 | 0.3
CCC(C)CCC(O)C1=C(C)C(O)OC1=O (stereo unspecified) | -6.2 | 0.4
C[C@H](CO)N1C[C@H](C)[C@H](CN(C)S(=O)(=O)c2ccccc2)Oc2ccc(NC(=O)CCC(F)(F)F)cc2C1=O | -1.7 | 0.5
CSc1scc2c1-c1nc(SCC(=O)c3ccc(Cl)cc3)ncc1CC2 | -2.1 | 0.5
COc1ccc(NC(=O)Nc2cccc3c2O[C@@H](CN(C)Cc2ccc(Cl)c(Cl)c2)[C@H](C)CN([C@@H](C)CO)C3=O)cc1 | -9.7 | .
C[C@H]1CN([C@@H](C)CO)C(=O)c2cc(NS(=O)(=O)c3ccc(Cl)cc3)ccc2O[C@@H]1CN(C)CC1CC1 | -2.7 | -0.2
Cc1noc(C)c1NC(=O)Nc1cccc2c1O[C@H](CN(C)C(=O)Nc1ccc(F)cc1)[C@H](C)CN([C@H](C)CO)C2=O | 3.5 | .
COc1ccc(S(=O)(=O)Nc2cccc3c2O[C@@H](CN(C)CC2CC2)[C@H](C)CN([C@H](C)CO)C3=O)cc1 | 4.3 | .
CCn1cnc2c(oc3ccccc32)c1=O | 4.7 | 0.0
C[C@@H]1CN([C@@H](C)CO)C(=O)c2cccc(NC(=O)c3ccncc3)c2O[C@@H]1CN(C)CC1CC1 | -1.7 | .
C[C@H](CO)N1C[C@H](C)[C@H](CN(C)S(=O)(=O)c2cccs2)Oc2c(NC(=O)c3cnccn3)cccc2C1=O | -2.0 | .
C[C@H]1CN([C@@H](C)CO)C(=O)c2cccc(NC(=O)c3nc4ccccc4s3)c2O[C@@H]1CN(C)S(=O)(=O)c1ccc(F)cc1 | 1.8 | .
C[C@@H]1CN([C@H](C)CO)C(=O)c2cccc(NC(=O)Nc3cccc4ccccc34)c2O[C@H]1CN(C)C(=O)Nc1ccc(F)cc1 | 1.4 | .
CC1(C)COC(CC(=O)c2ccncc2)=N1 | 0.9 | -0.2
O=c1cc(Nc2ccccc2)cc[nH]1 | 1.0 | 0.2
COc1ccc(CN(C)C[C@@H]2Oc3ccc(NC(=O)Nc4ccc(C(F)(F)F)cc4)cc3C(=O)N([C@H](C)CO)C[C@H]2C)cc1 | -3.3 | -0.2
Cc1cc2ccccc2n1CCNC(=O)C12CC3CC(CC(C3)C1)C2 | 8.1 | .
C[C@H](CO)N1C[C@H](C)[C@@H](CN(C)Cc2ccc(C(F)(F)F)cc2)Oc2c(cccc2N(C)C)C1=O | 8.9 | .
CS(=O)(=O)Nc1ccc2c3c(cccc13)CC2 | -2.5 | -0.2
Cc1ccc(N2C(=O)Nc3ccccc3C2(O)C(=O)NC2CCCC(C)C2C)cc1C (stereo unspecified) | 21 | .
C[C@@H]1CN([C@@H](C)CO)C(=O)c2cc(NS(=O)(=O)c3cccs3)ccc2O[C@@H]1CN(C)C(=O)Nc1ccc2c(c1)OCO2 | -2.4 | -1.0
Cc1cc(C)cc(Oc2coc3cc(OCC(=O)NCc4ccccc4)ccc3c2=O)c1 | 1.2 | 1.0
C=CC1CN(C(C)=O)CCC1CCC(=O)c1ccnc2ccccc12 (stereo unspecified) | 4.7 | -1.1
Cc1cc(C)c(OC(=O)/C=C/c2cccs2)c(C)c1 | 3.5 | -1.2
c1ccc2c(CSc3nc4ccccc4o3)cccc2c1 | -1.2 | -0.3
Cc1ccc(S(=O)(=O)N(C)C[C@H]2Oc3ccc(NS(=O)(=O)c4ccccc4)cc3C(=O)N([C@H](C)CO)C[C@@H]2C)cc1 | -1.7 | -0.5
C[C@@H]1CN([C@@H](C)CO)C(=O)c2cccc(NC(=O)C3CCOCC3)c2O[C@H]1CN(C)S(=O)(=O)c1cn(C)cn1 | 1.8 | .
Cc1cc(C(=O)Nc2cccc3c2O[C@H](CN(C)C(=O)NC(C)C)[C@@H](C)CN([C@@H](C)CO)C3=O)n(C)n1 | 2.1 | .
Cc1noc(C)c1NC(=O)Nc1cccc2c1O[C@@H](CN(C)Cc1ccc(C(=O)O)cc1)[C@H](C)CN([C@@H](C)CO)C2=O | -1.6 | .
Cc1noc(C)c1S(=O)(=O)Nc1cccc2c1O[C@H](CN(C)S(=O)(=O)c1ccccc1)[C@H](C)CN([C@@H](C)CO)C2=O | -2.4 | .
CC(CNC(=O)c1cc2oc3ccccc3c2n1C)c1ccccc1 (stereo unspecified) | 15 | -1.4
COc1ccc(N/C(N)=N/c2nc(CSc3nc4ccccc4s3)cc(=O)[nH]2)cc1 | 4.7 | -0.6
C[C@@H]1CN([C@H](C)CO)C(=O)c2cc(NC(=O)c3ccncc3)ccc2O[C@@H]1CN(C)Cc1ccc(-c2ccccc2)cc1 | 2.5 | -1.4
CN(Cc1ccccc1)c1nc(-c2ccccc2)cc(C(F)(F)F)n1 | -2.5 | .
COc1ccc(C(=O)CSc2nn3c(SCC(=O)c4ccc(OC)cc4)nnc3s2)cc1 | 1.6 | 0.5

4 entries out of the list, arranged by number of heavy atoms, lowest first.
SMILES | BJeLR viab HTS | A1 inhib
CC1(C)COC(CC(=O)c2ccncc2)=N1 | 0.9 | -0.2
COc1cc2c(c(O)c1CO)C(=O)CCC2O (stereo unspecified) | 3.5 | -0.3
CCSc1ccsc1C1C(C#N)=C(N)N(c2cccnc2)C2=C1C(=O)CC(C)(C)C2 (stereo unspecified) | -0.1 | 1.0
Cc1noc(C)c1NC(=O)Nc1cccc2c1O[C@@H](CN(C)Cc1ccc(C(=O)O)cc1)[C@H](C)CN([C@@H](C)CO)C2=O | -1.6 | .

Some of the compounds tested; the hit share may differ from the screen's.
